Source: PubChem
H5N1 antiviral: MDCK cell protection from H5N1 avian flu; inhibition, % at 50 µM; cytopathic effect, luminescence, 72 h; stronger effect = higher value; no value below 0 was filed and about half of the inactive calls have no number; reference of the scale not given here; hit rate 0.07% among 96,000; in the data active = inhibition above about 25%
An asterisk follows results filed as active; i = inactive. The list is partial; the hit share may differ from the screen's.

SMILES | H5N1 antiviral
Cc1ccc(-c2nnn(CC(=O)N(CC(=O)NCc3ccccc3)c3cccc(C)c3C)n2)o1 | i
O=C(COc1ccc(Cl)cc1)Nc1ccc(C(=O)NCc2cccnc2)cc1 | 0.9
CCOC(=O)c1oc2ccccc2c1CSc1nnnn1-c1ccc(OC)cc1 | i
Cc1sc2nc(SCc3nc4ccccc4[nH]3)n(Cc3ccco3)c(=O)c2c1C | i
CC(C)(C)c1ccc(C(=O)NCc2cccnc2)cc1 | 1.4
COc1cccc(/C=C/C(=O)c2c(O)cc(C)oc2=O)c1O | 0.4
Nc1c(S(=O)(=O)c2cccs2)c2nc3ccccc3nc2n1CCc1ccccc1 | 0.5
Cc1nc2ncnn2c(C)c1CCC(=O)N1CC(C)CC(C)C1 (stereo not drawn) | 2.2
CCCCN1C(=O)C(NC(C)=O)c2cc(Br)ccc21 (stereo not drawn) | i
CC(=O)N1C(C(=O)O)CSC1c1cccc(C)c1 (stereo not drawn) | 0.3

Sorted by SMILES length (high to low): part of the list above.
SMILES | H5N1 antiviral
O=C(COc1ccc(Cl)cc1)Nc1ccc(C(=O)NCc2cccnc2)cc1 | 0.9
CCOC(=O)c1oc2ccccc2c1CSc1nnnn1-c1ccc(OC)cc1 | i
CC(=O)N1C(C(=O)O)CSC1c1cccc(C)c1 (stereo not drawn) | 0.3

The listing continues.
SMILES | H5N1 antiviral
CCOc1ccc(CCNC(=O)C2CCC(=O)N2CCc2ccccc2)cc1OCC (stereo not drawn) | i
COCCOC(=O)C1=C(C)NC(=O)NC1c1ccc(OC(=O)c2ccco2)c(OC)c1 (stereo not drawn) | i
Cc1ccc(-c2nc(CS(=O)(=O)CC(=O)NCCCN3CCN(C)CC3)c(C)o2)cc1 | i
CCOC(=O)C(=CNc1cc(C)nn1-c1ccccc1)C(=O)OCC | 0.1
CCOC(=O)C1C(C)=CC(=O)CC1c1ccco1 (stereo not drawn) | 0.8
Cc1cc(C)c2c(c1)/C(=N/NS(=O)(=O)c1ccc(Br)cc1)CCC2 | 0.3
O=C(NCC(=O)N(c1ccc2c(c1)OCO2)C(C(=O)NC1CCCC1)c1ccncc1)c1ccco1 (stereo not drawn) | 0.4
CC(C)NC(=O)c1onc(CSc2ccc(F)cc2)c1C(=O)O | 0.2
Cn1c(SCC(=O)Nc2ccccc2F)nnc1-c1cc2ccccc2o1 | i
CN(C)c1cc(=O)n2c(n1)SCCC2 | i
CC(CCc1ccccc1)NC(=O)C1CCN(c2nnc(-n3cccc3)s2)CC1 (stereo not drawn) | i
CCOC(=O)N1CCN(C(=O)C2CCN(S(=O)(=O)c3ccc(Br)s3)CC2)CC1 | 0.7
CCOC(=O)CSc1nn(C)c(=S)s1 | 1.1
COC(=O)c1ccc(=O)n(Cc2ccc3c(c2)OCO3)c1 | 0.5
O=C(Nc1cnc2ccccc2c1)N1CCOCC1 | 0.3
COc1cc(C)nc(N2CCC(C(=O)NC3CCCCC3)CC2)n1 | i
c1ccc(COc2ccc(Nc3ncnc4nc[nH]c34)cc2)cc1 | 0.1
O=C1CC(c2ccc(F)cc2)Sc2ccccc2N1 (stereo not drawn) | i
O=C(CSc1nnc(-c2cccs2)o1)N1CCCCC1 | 1.1
COc1cccc(C2=NOC(C(=O)Nc3ccc(OC)c(OC)c3)C2)c1 (stereo not drawn) | 0.2
Cc1sc2nc(C(C)Nc3ccccc3N3CCOCC3)[nH]c(=O)c2c1C (stereo not drawn) | 0.3
COn1c(SCc2cccnc2)nc2ccccc2c1=O | 3.1
O=C(NCCOC(=O)c1ccc(C(=O)OCCNC(=O)c2ccccc2)o1)c1ccccc1 | i
O=S(=O)(c1cccc2cccnc12)N1CCc2ccccc21 | 1.6
CCN1CCN(C(c2cc(OC)ccc2OC)c2nnnn2Cc2ccccc2)CC1 (stereo not drawn) | i
CCOC(=O)c1ccccc1NC(=O)CN(c1ccccc1OCC)S(C)(=O)=O | 0.9
CCCCCC(C(=O)O)C(C)CC(=O)NC1CCCCC1 (stereo not drawn) | i
Cc1ccc(-c2nnc(SCC(=O)Nc3ccccc3N3CCOCC3)o2)cc1 | i
Cc1nn(C)c(Cl)c1NC(=O)OCc1ccccc1 | 0.6
CC1=C(C(=O)Nc2ccccc2Cl)C(c2ccc(N(C)C)cc2)NC(=O)N1 (stereo not drawn) | i
O=C(CN1C(=O)CSc2ncccc21)NCCN1CCOCC1 | 1.1
Cc1ccc2sc(NC(=O)CN3C(=O)CCC3=O)nc2c1C | 0.6
CC1CCCC(C)N1C(=O)CN1CCN(c2nc(-c3ccc(F)cc3)cs2)CC1 (stereo not drawn) | i
Cc1nc2cc(C(F)(F)F)ccc2n1C1CCN(CC(=O)NC(C)(C)C)CC1 | 0.9
Cc1ccc(C)c2[nH]c(=O)c(C(c3nnnn3Cc3ccccc3)N3CCc4ccccc4C3)cc12 (stereo not drawn) | i
Cc1ccc(P(C)(=O)c2ccc(C)cc2)cc1 | 0.7
O=C1C2CCCN2C(c2ccc(Br)cc2)N1c1ccc(F)cc1 (stereo not drawn) | 1.4
CCOC(=O)c1cc(C#N)c(Oc2ccc(F)cc2)nc1-c1ccccc1 | 0.8
O=C(Nc1ccc(N2CCOCC2)cc1)C1CC1 | i
Cc1oc(-c2nc3ccccc3n2C)cc1C(=O)c1ccccc1 | 0.8
CCCc1cc(Nc2ccccc2OCC)n2ncnc2n1 | i
Cc1n[nH]c(C)c1S(=O)(=O)N1CCc2ccccc21 | 0.1
Clc1ccc(-c2nnc3n2CCCC3)cc1 | i
O=C(NCc1ccccc1)c1ccc2nc(-c3ccco3)c(-c3ccco3)nc2c1 | 1.1
CO/N=C(\c1nonc1N)N1CCN(c2ccc([N+](=O)[O-])cc2Cl)CC1 | 1.4
CCOC(=O)c1c[nH]c2c(Cl)ccc(Cl)c2c1=O | 1.8
CCN(CC)CCn1c(NCc2ccc(C)o2)nc2ccccc21 | i
COCCCn1c(=S)[nH]c2ccc(N3CCOCC3)cc2c1=O | 0.4
CCc1ccc2[nH]c(=O)c(C(c3nnnn3Cc3ccc(OC)cc3)N3CCOCC3)cc2c1 (stereo not drawn) | i
N#CC(C(=O)NC1CC1)c1nc2ccccc2nc1N1CCN(C/C=C/c2ccccc2)CC1 (stereo not drawn) | 0.3

(more compounds)
SMILES | H5N1 antiviral
COC(=O)CSc1nnc2n1C(C)(C)Cc1ccccc1-2 | 0.4
CSCCC(C(=O)N1C[C@]2(C)C[C@H]1CC(C)(C)C2)N1C(=O)c2ccccc2C1=O (stereo partly drawn) | 0.3
COC(=O)CC1(Cc2ccccc2)C(=O)NC(=O)NC1=O | i
CCCCN(C)C(=O)C(Cc1ccccc1)NS(=O)(=O)c1ccc2c(c1)CCC(=O)N2 (stereo not drawn) | 1.7
COC(=O)c1cccc(NC(=O)/C(=C\c2ccccc2)NC(=O)c2ccccc2Cl)c1 | i
CCOC(=O)CCn1nnc(N)n1 | 0.8
COc1ccc(OC)c(C2C(C(=O)c3cc4ccccc4o3)=C(O)C(=O)N2c2cc(C)on2)c1 (stereo not drawn) | i
COc1cc(C(=O)COC(=O)CNC(=O)C2CCCCC2)cc(OC)c1OC | i
COc1ccc(N(Cc2cc3cc(OC)ccc3[nH]c2=O)S(C)(=O)=O)cc1 | 0.9
O=C(NC12CC3CC(CC(C3)C1)C2)N1CCC(O)CC1 | i

Sorted by formula weight (largest number first): part of the list above
SMILES | H5N1 antiviral
CCc1ccc2[nH]c(=O)c(C(c3nnnn3Cc3ccc(OC)cc3)N3CCOCC3)cc2c1 (stereo not drawn) | i
COc1ccc(OC)c(C2C(C(=O)c3cc4ccccc4o3)=C(O)C(=O)N2c2cc(C)on2)c1 (stereo not drawn) | i
N#CC(C(=O)NC1CC1)c1nc2ccccc2nc1N1CCN(C/C=C/c2ccccc2)CC1 (stereo not drawn) | 0.3
CSCCC(C(=O)N1C[C@]2(C)C[C@H]1CC(C)(C)C2)N1C(=O)c2ccccc2C1=O (stereo partly drawn) | 0.3
O=C(NCc1ccccc1)c1ccc2nc(-c3ccco3)c(-c3ccco3)nc2c1 | 1.1
COc1cc(C(=O)COC(=O)CNC(=O)C2CCCCC2)cc(OC)c1OC | i
COc1ccc(N(Cc2cc3cc(OC)ccc3[nH]c2=O)S(C)(=O)=O)cc1 | 0.9
CO/N=C(\c1nonc1N)N1CCN(c2ccc([N+](=O)[O-])cc2Cl)CC1 | 1.4
COCCCn1c(=S)[nH]c2ccc(N3CCOCC3)cc2c1=O | 0.4
CCN(CC)CCn1c(NCc2ccc(C)o2)nc2ccccc21 | i
COC(=O)CSc1nnc2n1C(C)(C)Cc1ccccc1-2 | 0.4
COC(=O)CC1(Cc2ccccc2)C(=O)NC(=O)NC1=O | i
O=C(NC12CC3CC(CC(C3)C1)C2)N1CCC(O)CC1 | i
Cc1n[nH]c(C)c1S(=O)(=O)N1CCc2ccccc21 | 0.1
Clc1ccc(-c2nnc3n2CCCC3)cc1 | i
CCOC(=O)CCn1nnc(N)n1 | 0.8

(continued)
SMILES | H5N1 antiviral
O=C(CCC(=O)NNC(=O)Nc1ccc(Cl)cc1)NCc1ccccc1 | i
COC(=O)c1ccc(CSc2nnc(NC(=O)c3cc4c(s3)CCCC4)s2)cc1 | i
Cc1cc(C(=O)NCCCc2ccccc2)no1 | 0.0
CCn1c(SCC(=O)Nc2cccc(C)n2)nnc1-c1ccco1 | i
O=C(CN(C(=O)CCC(=O)Nc1nccs1)c1ccc2c(c1)OCO2)NCC1CCCO1 (stereo not drawn) | i
CC(=C/c1ccccc1)/C=N/n1cnnc1 | i
COc1ccc(NC(=O)N2CCN(CCC#N)CC2)cc1 | i
CC(C)(C)n1nnnc1C(c1ccc2ncccc2c1)N1CCSCC1 (stereo not drawn) | 1.9
CCOC(=O)c1sc(NC(=O)C2CC2)nc1C | 1.2
COc1ccccc1C(=O)Nc1c(C)n(C)n(-c2ccccc2)c1=O | i
COC(=O)C1=C(N)Oc2cc(C)[nH]c(=O)c2C1c1cccnc1 (stereo not drawn) | 1.4
N/C(Cc1cccs1)=N\OC(=O)COc1ccccc1 | i
NS(=O)(=O)c1ccc(NC(=O)CCC2CCCCC2)cc1 | 0.1
CCOC(=O)C(NC(=O)CC)(N1CCc2ccccc2C1)C(F)(F)F (stereo not drawn) | i
O=C(CCc1c[nH]c2ccccc12)NCc1ccc2c(c1)OCO2 | i
COC(=O)Cc1cc(=O)oc2c(C)c(O)ccc12 | 0.6
Cc1nn(C)c(C)c1S(=O)(=O)Nc1ccc2c(c1)OCO2 | 0.7
COc1cc(CNCc2ccccn2)ccc1OCc1c(Cl)cccc1Cl | i
O=C(NC1CCCCC1)C1CCC(CNS(=O)(=O)c2cccc3nsnc23)CC1 (stereo not drawn) | 0.5
COC(=O)COn1c(SCC(=O)OC)nc2ccccc2c1=O | 0.1
COc1ccc2c(c1)nc(SCC(=O)C(C)(C)C)n2C | 0.1
Cc1cccc(NC(=O)CSc2nc3nc(C)cc(C)c3c(=O)[nH]2)c1 | i
COc1ccc(S(=O)(=O)Cc2ccc(C(=O)N3CCN(c4ccccn4)CC3)o2)cc1 | 1.6
Cc1cc2c(=O)n(CC(=O)N3CCN(c4ccc(F)cc4)CC3)cnc2s1 | i
CCn1c(NC(=O)c2cccc(Cn3cc(Cl)cn3)c2)nc2ccccc21 | i
Cn1c(C(=O)N2CCCC(C(=O)NCCCSC3CCCCC3)C2)cc2sccc21 (stereo not drawn) | i
Cc1ccc(CNC(=O)CN2C(=O)COc3ccc(C)cc32)cc1 | i
COc1ccccc1CNCC(O)(c1ccc(Cl)cc1)c1ccc(Cl)cc1 | i
CCC(C)(C)n1nnnc1C(c1ccccn1)N1CCOCC1 (stereo not drawn) | 0.7
O=C(CCC(=O)OCCCC(F)(F)C(F)(F)F)Nc1ccc(Cl)cc1Cl | 0.3
CC(C)(C)OC(=O)N1CCCC(C(=O)CC#N)C1 (stereo not drawn) | 0.9
Cc1nnc(SCC(=O)Nc2ccccc2)[nH]c1=O | 0.1
COc1ccc(/C=N/Nc2nc3ccccc3o2)cc1O | 2.8
N#CC1=C(N)Oc2c(c(=O)oc3ccccc23)C1c1ccncc1 (stereo not drawn) | 0.4
O=C1CCCC2=C1C(c1ccccc1)n1c(s/c(=C/c3cccc(F)c3)c1=O)=N2 (stereo not drawn) | 1.0
CCOC(=O)c1sc(NC(=O)CSc2n[nH]c(-c3ccccc3)n2)c(C#N)c1C | 0.6
Oc1c(Br)cc(Br)cc1CN1CCN(Cc2ccccc2)CC1 | i
O=C(CS(=O)c1cccc(C(F)(F)F)c1)Nc1ccc(Cl)cc1Cl (stereo not drawn) | i
CC(C)c1ccc(O)c(N)c1 | 0.4
CCOC(=O)CC(=O)CSc1nc(-c2cccnc2)ccc1C#N | i
COc1ccc(C(=O)NC(Oc2ccccc2)C(Cl)(Cl)Cl)cc1 (stereo not drawn) | 0.0
Clc1ccc(-c2nn3c(-c4ccccc4)nnc3s2)cc1 | 1.0
CC(=O)Nc1ccc(C(=O)CSc2nnc(Cn3nnc4ccccc43)n2C)cc1 | 1.2
COc1cccc(C2CC(c3ccccc3)Nc3ncnn32)c1 (stereo not drawn) | 1.1
CC(C)c1nc(SCC(=O)Nc2nc3c(s2)CCCC3)c2ccccc2n1 | i
CCC(=NCc1ccco1)c1c(O)n(-c2ccc(OC)cc2)c(=O)[nH]c1=O | i
COc1ccc(CN2C(=O)CN=C2Nc2cccc(C)c2C)cc1 | i
CC#CCCC(=O)N1C=Cc2ccccc2C1C#N (stereo not drawn) | i
Cc1nn(S(=O)(=O)N2CCCCC2)c(C)c1Br | 1.9
O=C(C1=C(O)C(=O)N(Cc2ccco2)C1c1cccnc1)c1cc2ccccc2o1 (stereo not drawn) | 1.7

Other results follow:
SMILES | H5N1 antiviral
O=c1[nH]cnc2sc3c(c12)CCCC3 | 1.0
CN(CC(=O)Nc1ccc2c(c1)OCCO2)S(=O)(=O)c1ccc(Br)s1 | i
CC(C)(C)c1nnc2sc(SCC(=O)c3ccc(Cl)cc3)nn2c1=O | i
Cn1c(NCc2cccs2)nc2ccccc21 | 0.5
COc1ccc(/C(O)=C2/C(=O)C(=O)N(Cc3cccnc3)C2c2ccncc2)cc1F (stereo not drawn) | 2.4
COC(=O)N(c1ccc(OC)cc1)P1(=S)OCCC(C)O1 (stereo not drawn) | 0.7
Cc1ccc(S(=O)(=O)NC2CCCC(C(=O)O)C2)cc1 (stereo not drawn) | 0.5
CNC(=O)c1cc2c(ccc3ccccc32)oc1=N | 1.4
O=C(CSc1nc(NS(=O)(=O)c2ccccc2)cc(=O)[nH]1)Nc1ccc(F)cc1 | i
